Assay outcomes: PubChem, National Center for Advancing Translational Sciences (NCATS)
N370S GC mod: N370S glucocerebrosidase modulation, Gaucher chaperone candidate; P04062; N370S GC spleen homogenate, 4MU-glucoside fluorescence; Potency, µM (highest dose often 59.4 µM), for the others: at the highest dose activity change, negative = inhibition, usual class: inhibitors; 330,000 compounds, 0.092% hits; AID 2101;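 note: 0% = full enzyme activity and -100% = no enzyme basal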
TDP1 block: inhibitors of human tyrosyl-DNA phosphodiesterase TDP1 | Q9NUW8 | 350,000 compounds, 0.28% hits | Potency, µM (series often up to 130 µM), for the others: at the highest dose activity change, negative = inhibition, actives largely listed as inhibitors | recombinant TDP1, AlphaScreen DNA substrate cleavage; note: nearly all actives have a fitted effect of over 40% in size
Target sequence (Q9NUW8 whole entry, looked up): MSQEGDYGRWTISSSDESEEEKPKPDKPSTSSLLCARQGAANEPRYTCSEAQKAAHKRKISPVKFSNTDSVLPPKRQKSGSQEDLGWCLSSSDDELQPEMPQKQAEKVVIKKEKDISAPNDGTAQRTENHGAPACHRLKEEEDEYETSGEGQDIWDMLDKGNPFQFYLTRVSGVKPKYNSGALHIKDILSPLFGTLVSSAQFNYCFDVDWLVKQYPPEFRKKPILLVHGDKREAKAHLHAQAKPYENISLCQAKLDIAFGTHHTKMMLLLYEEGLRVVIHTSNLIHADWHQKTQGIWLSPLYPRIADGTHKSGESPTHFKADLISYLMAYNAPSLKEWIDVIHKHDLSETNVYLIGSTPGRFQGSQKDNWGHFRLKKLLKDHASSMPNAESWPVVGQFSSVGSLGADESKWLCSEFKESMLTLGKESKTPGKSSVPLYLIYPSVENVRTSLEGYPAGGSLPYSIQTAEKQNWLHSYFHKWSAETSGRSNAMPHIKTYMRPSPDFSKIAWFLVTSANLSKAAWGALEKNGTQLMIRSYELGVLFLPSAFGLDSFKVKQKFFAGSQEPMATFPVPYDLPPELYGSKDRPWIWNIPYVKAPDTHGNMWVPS
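Steps: enzyme plus compound, 15 min RT; add biotin/phosphotyrosine-FITC oligonucleotide (15 nM final), react 5 min; add donor/acceptor beads (10 ug/ml final), 10 min; read AlphaScreen. Tdp1 at 1 nM final.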
* marks the source's active call; other numbers are inactive results; ? = inconclusive; . = not tested or not shown; & = joins results of further samples; [ ] = dose if it differs, or a comment. Calls come from the whole dose curve; as a rule, active = well fitted curve in the direction sought with a large enough effect; inconclusive = small, poorly fitted or top-dose-only effect, or another doubt; inactive = no such curve, though single readings can be large; an effect the other way counts as inactive or inconclusive. Unless noted, % is set by controls: 0 for no effect and ±100 for the full control effect; potency is the fitted concentration of half-maximal effect. These rows are one share of the data; most or all hits stand in other tables.

SMILES | N370S GC mod | TDP1 block
O=C1/C(=C/c2cccs2)SC(=S)N1c1cccc(O)c1 | 19% | 11%
COCCNC(=O)C(c1ccc(C)o1)N(CCOC)C(=O)Cn1nnc2ccccc21 (stereo unspecified) | 4% | 5%
O=C(CSc1nc2ncccc2[nH]1)NCCc1ccccc1 | -11% | .
CCOCCCNC(=O)CSc1ccccc1 | 4% | 7%
CCc1ccccc1N(CC(=O)NCc1ccc(OC)cc1)C(=O)CCC(=O)Nc1ccccn1 | -10% | .
COc1cc2c(cc1OC)C(Cc1ccc(O)cc1)N(C)CC2 (stereo unspecified) | -22% | 3%
O=C(NN1C(=O)/C(=C\c2ccc(O)c([N+](=O)[O-])c2)SC1=S)c1ccccc1Cl | -22% | 5%
CNC(=O)C(=O)NCC1OCCN1S(=O)(=O)c1ccc(OC)c(OC)c1 (stereo unspecified) | 0% | 3%
Cn1ccnc1CN1CCN(C(=O)c2cc(COc3ccc(F)c(F)c3)on2)CC1 | -20% | 3%
CC(=O)Oc1ccc(N2C(=O)C3C(C2=O)C2C=CC3C23CC3)cc1[N+](=O)[O-] (stereo unspecified) | 11% | 5%
Cc1c(Cl)cccc1N=C1SCCN1C(=O)CN1C(=O)NC2(CCCC2)C1=O | -24% | -7%
CCN1CCN(C(=O)C2CCN(S(=O)(=O)c3ccc4c(c3)NC(=O)C(C)S4)CC2)CC1 (stereo unspecified) | -2% | -1%
C=C(C)C1CC=C(CN2CCC(O)CC2)CC1 (stereo unspecified) | -15% | 6%
CN(C)/C=N/C(=S)Nc1ccc(F)cc1 | 5% | 3%
OC(COc1ccccc1)Cn1c2ccccc2c2ccccc21 (stereo unspecified) | 1% | -1%
O=[N+]([O-])c1ccc2[nH]c(O)c(N=NC(=S)NCC3CCCO3)c2c1 (stereo unspecified) | -6% | 4%
COC(=O)[C@H]1[C@H]2C[C@H]3c4[nH]c5ccccc5c4CCN3C[C@H]2CC[C@@H]1O | 11%&-6% | 9%[56.1 µM]
CCS(=O)(=O)n1nc(-c2ccc(Cl)cc2)nc1SCc1ccccc1 | 5% | -3%
C=CCNC1=C(Cl)C(=O)N(Cc2ccccc2)C1=O | 6% | -5%
COC(=O)c1ccc(CNC(=O)CN(CCC(C)C)S(=O)(=O)c2ccc3c(c2)OCCO3)cc1 | 3% | 3%
Cc1ccc2nc(NC(=O)CSc3nc4c(c(=O)n3C)SC(C)C4)sc2c1 (stereo unspecified) | 15% | -2%
CC1CC(C)CN(C(=O)CCCNC(=O)c2ccc(Cl)cc2)C1 (stereo unspecified) | 0% | 6%
Cc1c(O)c(=O)c2ccccc2n1C | ? | 9%[21 µM]
Cc1cc(=O)oc2cc(NC(=S)NCc3ccccn3)ccc12 | 20% | 5%
CCCCn1c(N)c(N(CCOC)C(=O)COC(=O)COc2c(C)cccc2C)c(=O)[nH]c1=O | -3% | .

Taken from above.
TDP1 block, `COc1cc2c(cc1OC)C(Cc1ccc(O)cc1)N(C)CC2` (stereo unspecified) = 3%
N370S GC mod, `CCCCn1c(N)c(N(CCOC)C(=O)COC(=O)COc2c(C)cccc2C)c(=O)[nH]c1=O` = -3%

Next results follow:
SMILES | N370S GC mod | TDP1 block
COc1ccccc1NC(=O)Nc1nc(CC(=O)NCc2ccc(F)cc2)cs1 | -3% | .
Cc1ccc2c(N)c(C(=O)N(c3ccccc3)c3ccccc3)sc2n1 | -5% | 0%[56.1 µM]
O=C(CSc1nnc(COc2ccccc2)o1)NC1CC2CCC1C2 (stereo unspecified) | -8% | -3%
CCOc1cc(/C=N/O)ccc1OCc1ccccc1F | -18% | 1%
O=C(COc1ccccc1)Nc1cccc2c1CCCC2 | 6% | -8%
c1ccc(-c2oc3ncnc(NCCCn4ccnc4)c3c2-c2ccccc2)cc1 | -23% | 12%
COC(=O)c1cc(Br)c(=O)n(-c2ccccc2F)c1 | 15% | 2%
COc1ccc(NC(=O)c2cc([N+](=O)[O-])ccc2N2CCCCC2)cc1 | -8% | 10%
CCOc1ccccc1NC(=S)N(CCOC)C1CCN(C(C)=O)CC1 | 3% | 4%
O=C(NC1CCCCC1)n1c(=O)oc2cc(S(=O)(=O)N3CCCCC3)ccc21 | 0% | -4%
CCOC(=O)C1=C(C)N=C2SC(C)C(=O)N2C1c1ccc(C(=O)OC)cc1 (stereo unspecified) | ? | 3%
O=C1C2(CCC13COC(c1ccc(O)cc1)OC3)COC(c1ccc(O)cc1)OC2 (stereo unspecified) | -3% | 2%
Cc1cccc(CC2SC(N)=NC2=O)c1 (stereo unspecified) | 9% | 0%
O=C(NCCN1C(=O)C2C3C=CC(C3)C2C1=O)Nc1ccccc1 (stereo unspecified) | 4% | -1%
O=c1[nH]oc(O)c1-c1ncc(C(F)(F)F)cc1Cl | 0% | -8%
CCOC(=O)C(C)Oc1cccc2c(=O)n(CC(=O)NCCc3ccccc3)ccc12 (stereo unspecified) | 14% | .
CCS(=O)(=O)N1CCC(C(=O)N2CCc3ccccc3C2)CC1 | ? | 3%
CC12CCC(=O)N1C(C(=O)Nc1ccc(F)c(F)c1F)CS2 (stereo unspecified) | -9% | .
CSCCC(NC(=O)COc1ccccc1)C(=O)N1CCN(c2ccccc2O)CC1 (stereo unspecified) | -2% | .
Cc1ccc(OCc2cc(C(=O)NC(C)Cc3cnccn3)no2)cc1C (stereo unspecified) | -5% | 4%[56.1 µM]
CCOC(=O)Cc1csc(NS(=O)(=O)c2cc(Cl)ccc2Cl)n1 | -14% | .
CCCN(CCC)S(=O)(=O)c1ccc(C(=O)N2CCN(C)CC2)cc1 | 0% | 4%
CC(=O)Nc1nc(NCc2ccccc2Cl)n(-c2ccccc2)n1 | 3% | .
Cc1ccc(C(=O)NCCOC23CC4CC(CC(C4)C2)C3)cc1 | 1% | 6%
Cc1cc(C)cc(-n2c(C)cc(C(=S)N3CCOCC3)c2C)c1 | 5% | -3%

Laid out differently: entries from further up.
Compound,N370S GC mod,TDP1 block
O=C1C2(CCC13COC(c1ccc(O)cc1)OC3)COC(c1ccc(O)cc1)OC2 (stereo unspecified),-3%,2%
Cc1cccc(CC2SC(N)=NC2=O)c1 (stereo unspecified),9%,0%
O=C(NCCN1C(=O)C2C3C=CC(C3)C2C1=O)Nc1ccccc1 (stereo unspecified),4%,-1%
O=c1[nH]oc(O)c1-c1ncc(C(F)(F)F)cc1Cl,0%,-8%
CCOC(=O)C(C)Oc1cccc2c(=O)n(CC(=O)NCCc3ccccc3)ccc12 (stereo unspecified),14%,.
CCS(=O)(=O)N1CCC(C(=O)N2CCc3ccccc3C2)CC1,?,3%
CC12CCC(=O)N1C(C(=O)Nc1ccc(F)c(F)c1F)CS2 (stereo unspecified),-9%,.
CSCCC(NC(=O)COc1ccccc1)C(=O)N1CCN(c2ccccc2O)CC1 (stereo unspecified),-2%,.
Cc1ccc(OCc2cc(C(=O)NC(C)Cc3cnccn3)no2)cc1C (stereo unspecified),-5%,4%[56.1 µM]
CCOC(=O)Cc1csc(NS(=O)(=O)c2cc(Cl)ccc2Cl)n1,-14%,.
CCCN(CCC)S(=O)(=O)c1ccc(C(=O)N2CCN(C)CC2)cc1,0%,4%
CC(=O)Nc1nc(NCc2ccccc2Cl)n(-c2ccccc2)n1,3%,.
Cc1ccc(C(=O)NCCOC23CC4CC(CC(C4)C2)C3)cc1,1%,6%
Cc1cc(C)cc(-n2c(C)cc(C(=S)N3CCOCC3)c2C)c1,5%,-3%

Further compounds follow.
SMILES | N370S GC mod | TDP1 block
Cc1oc(/C=N/NC(=O)CN(c2ccccc2Cl)S(C)(=O)=O)cc1Br | -1% | 2%
Cn1c(SCC(=O)c2ccc3c(c2)Cc2ccccc2-3)nnc1-c1cccc(N)c1 | 3% | -2%
CCc1noc(C)c1C(=O)N(C)CC(=O)Nc1ccc(Cl)c(Cl)c1 | -10% | .
O=C(NCC1CCCN(Cc2ccc3c(c2)OCCO3)C1)c1ccc2c(c1)OCO2 (stereo unspecified) | -19% | .
O=C(CCSCc1ccc(Cl)cc1)NCc1cccs1 | 3% | 2%
O=C(N/N=C/c1cccs1)c1ccc2ncccc2c1 | 17% | 5%
COc1ccc(-c2csc(NC(=O)CCS(=O)(=O)c3ccccc3)n2)c(OC)c1 | 2% | 3%
CC1CN(c2nc3ccccc3nc2NS(=O)(=O)c2ccccc2)CC(C)O1 (stereo unspecified) | . | 1%
CC(=O)Nc1ccc(NC(=O)Cn2c(=O)n(-c3ccc(C)cc3)c(=O)c3oc4ccccc4c32)cc1 | 20% | 0%
COc1cccc(/C=N/Nc2ncc(C)c(=O)[nH]2)c1OC | -11% | .
Cn1c(CCNC(=O)c2cccs2)n[nH]c1=S | 0% | 3%
O=C(Nc1nccs1)c1ccc(COc2ccc(F)cc2)o1 | 5% | 4%
O=C(c1cc(-c2ccco2)on1)N1CCN(c2ccccc2)CC1 | -2% | 8%
OC1(c2nc3ccccc3[nH]2)CCCCC1 | -4% | -2%
O=C(Nc1ccc(F)cc1)N1CCC(c2nc3c(nnn3Cc3ccccc3Cl)c(=O)[nH]2)CC1 | -17% | 4%
CC(=O)SCC[N+](C)(C)C | 1%&-1% | 10%[56.1 µM]
CC(C)CCCC(C)NS(=O)(=O)Cc1ccccc1 (stereo unspecified) | 4% | 0%
C=Cc1ccc(CN2CCCN(Cc3ccc(Cl)cc3)S2(=O)=O)cc1 | 1% | .
OCCN(CC(O)Cn1ccc2ccccc21)CC(O)Cn1ccc2ccccc21 (stereo unspecified) | -14% | 2%
Nc1c(C(=O)Nc2ccc(F)cc2)sc(=S)n1-c1ccccc1F | -3% | -9%
O=C(CSc1nnc(-c2ccc(O)cc2)n1Cc1ccccc1)NNC(=O)c1ccc(Br)cc1 | -12% | 5%
Nc1nc(NCc2ccco2)nc(Nc2ccccc2)c1[N+](=O)[O-] | -20% | 3%
O=C(NCCN1CCN(C(=O)c2cccs2)CC1)c1cccs1 | 3% | 7%
O=C(CSc1nnc(NC(=O)Nc2ccccc2)s1)Nc1cccc(F)c1 | . | 0%
O=C(NCCc1ccccc1)/C(=C\c1ccc([N+](=O)[O-])cc1)NC(=O)c1ccc(Br)cc1 | -7% | 5%
SMILES | N370S GC mod | TDP1 block
Nc1ccc2c(c1)N1CCN=C1S2 | -3% | -4%
O=C(NC(=S)N(Cc1ccccc1)c1ccccn1)C1CC1 | 5% | 1%
COc1cccc(CN2CCCN(S(=O)(=O)c3ccc(Br)cc3)CC2)c1 | -9% | 6%
CCC1CCCCN1CCCNC(=O)c1ccc2nc(N3CCCCC3)sc2c1 (stereo unspecified) | 2% | 0%
COc1ccccc1N1C(=O)C2C(C(=O)c3ccccc3)=NN(c3ccccc3OC)C2C1=O (stereo unspecified) | ? | 1%
CC(C)(C)NC(=S)N/N=C/c1c(Cl)cccc1Cl | 18% | 9%
Cn1c(=O)c2c(n(Cc3ccccc3)c1=O)NC(=O)C2CC(=O)NCc1cccc(Cl)c1 (stereo unspecified) | -14% | 8%
N#CC1(NC(=O)CSc2nc3ccccc3s2)CCCCC1 | . | 0%
CC(N)(C(=O)O)c1cccc(OCc2cccc(Cl)c2)c1 (stereo unspecified) | -1% | 2%
O=C(CSc1cccc[n+]1[O-])c1ccc(Cl)s1 | 5% | 0%
CN(CC(=O)N1CCCCCC1)S(=O)(=O)c1cccc2cccnc12 | 4% | 0%
CC(=O)Nc1cc(C(=O)N2CCCC2)ccc1S(=O)(=O)c1ccc(Cl)cc1 | 3% | 0%
COc1ccc2c(CC(=O)Nc3cccc(S(=O)(=O)N4CCOCC4)c3)coc2c1 | -9% | 4%
O=C(CCN1C(=O)c2ccccc2C1=O)OCN1C(=O)c2ccccc2C1=O | 3% | -5%
O=C(CSc1nnc(C2CC2)n1C1CC1)c1ccc(Br)s1 | . | 0%
Cc1ccc(N2CCN(CC(O)COc3ccc([N+](=O)[O-])cc3)CC2)cc1 (stereo unspecified) | -9% | 6%
Cc1ccc(NC(=O)C2C3CCCC2C3c2ccccc2)cc1 (stereo unspecified) | 3% | 1%
CCOC(=O)C1(Cc2ccc(OC)cc2)CCN(C(=O)C2CC(=O)N(C3CC3)C2)CC1 (stereo unspecified) | 21% | .
CCOC(=O)c1nc(C)n(-c2ccc(Cl)cc2Cl)n1 | -2% | 3%
COC(C(=O)Nc1ccccc1C(=O)N1CCOCC1)c1ccccc1 (stereo unspecified) | -17% | 1%
O=C(NC(N1CCOCC1)C(Cl)(Cl)Cl)c1ccc(F)cc1 (stereo unspecified) | 2% | 2%
Cc1ccc(S(=O)(=O)Nc2nc(C)c(C(=O)NNS(=O)(=O)c3ccccc3)s2)cc1 | 4% | 0%
COCC(=O)N1CCC(Oc2ccc(C(=O)NC(C)c3csc(C)n3)cc2)CC1 (stereo unspecified) | 3% | 1%
O=C(N/N=C/c1cccc(OC(=O)N2CCOCC2)c1)c1cccs1 | -5% | -4%
O=C(NCc1ccccc1Cl)C1CCN(S(=O)(=O)c2ccc(N3CCCC3=O)cc2)CC1 | -16% | 1%
SMILES | N370S GC mod | TDP1 block
COc1ccc(OCC(=O)Nc2ccc(N3CCN(C(=O)c4ccccc4)CC3)c(Cl)c2)cc1 | -4% | 4%
CCCn1c(CN2CCN(C(=O)OCC)CC2)nc2cc(NC(=O)C(C)C)ccc21 | -9% | .
COc1ccccc1C(=O)NCCC(=O)Nc1cccc(C)n1 | -2% | 2%
Cc1cccc(NC(=O)CC2C(=O)NCCN2C(=O)Nc2ccc(Cl)cc2)c1 (stereo unspecified) | -5% | 1%
CCCC(=O)Nc1ccccc1-c1nnn(CC(=O)Nc2ccc(OCC)cc2)n1 | 4% | 5%
CCC1=Nc2ccccc2NC2=C1C(=O)CCC2 | 0% | 10%
CC(c1nccs1)N(C)C(=O)CCc1nnc(Cc2c[nH]c3ccccc23)o1 (stereo unspecified) | 0% | -1%
